Assay outcomes: PubChem, Broad Institute
Ecoli rRNA inh: reduced GFP signal of wild-type E. coli, primary screen, bacterial rRNA inhibitor project, GFP/RFP fluorescence, OD600, single point | actives 1.6% (n = 350,000) | AID 720706, 2013 | GFP signal change (wild-type ribosome), % (no concentration beside the values) | E. coli WT GFP vs humanized-ribosome RFP mutants, 24 h; hits give low values; DMSO median 0, no signal -100;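 active = significant combined selectivity score with lowered wild-type GFP, culture density cut under 30%, mutant RFP and density less affected; inactive = any of these conditions unmet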; also: one replicate is shown; some compounds called inactive have numbers as strong as hits
MLL AF4-AF9 inh: inhibitors of AF4 peptide binding to AF9, primary screen, biochemical, AlphaScreen, biotin-AF4 peptide, FLAG-AF9, single point; Protein AF-9 (Homo sapiens), P42568; inhibition, % at 10 µM; actives 0.47% (n = 350,000); AID 651704, 2012;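 active = every replicate reaching a set inhibition limit, whatever the replicate mean, cut at about 25% in these data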;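 also: 0% = plate neutral control median and 100% = total signal loss; the record names both 10 and 1 µM as test concentration; the first replicate is given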
Target sequence (P42568 whole entry, looked up): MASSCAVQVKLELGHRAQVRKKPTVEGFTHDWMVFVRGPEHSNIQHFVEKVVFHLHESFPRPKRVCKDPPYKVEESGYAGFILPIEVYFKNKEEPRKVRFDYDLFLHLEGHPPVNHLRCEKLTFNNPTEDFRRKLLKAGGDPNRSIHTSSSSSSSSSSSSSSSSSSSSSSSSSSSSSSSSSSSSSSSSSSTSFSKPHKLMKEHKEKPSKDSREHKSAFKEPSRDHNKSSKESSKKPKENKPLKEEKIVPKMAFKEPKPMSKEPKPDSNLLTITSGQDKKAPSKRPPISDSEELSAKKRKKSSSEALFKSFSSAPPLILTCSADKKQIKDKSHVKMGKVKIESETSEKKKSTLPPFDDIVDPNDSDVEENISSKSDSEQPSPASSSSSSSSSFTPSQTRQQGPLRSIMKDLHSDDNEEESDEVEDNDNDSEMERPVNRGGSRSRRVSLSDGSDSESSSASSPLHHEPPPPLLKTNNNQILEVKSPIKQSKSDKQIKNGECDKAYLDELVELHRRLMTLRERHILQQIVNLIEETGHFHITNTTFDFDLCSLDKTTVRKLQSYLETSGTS
FGF22 binding: binders of human FGF22 protein, primary screen, FGF22 synaptogenesis inhibitor project, biophysical, thermal shift, single point; Fibroblast growth factor 22 (Homo sapiens), Q9HCT0; recombinant FGF22 thermal shift, SYPRO orange fluorescence; percent of sucrose octasulfate shift, DMSO zero; calls only at 9.99 µM; actives 1.5% (n = 340,000);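 active = melting point raised past a set limit in the mean and every replicate; three in four hits are not shown here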
Target sequence (Q9HCT0 whole entry, looked up): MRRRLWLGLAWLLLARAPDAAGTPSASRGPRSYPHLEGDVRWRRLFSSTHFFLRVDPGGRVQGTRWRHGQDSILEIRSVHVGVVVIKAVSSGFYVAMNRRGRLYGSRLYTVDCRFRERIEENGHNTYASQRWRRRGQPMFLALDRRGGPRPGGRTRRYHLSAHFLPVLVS
Ecoli rRNA inh OD600: further read-out of Ecoli rRNA inh, marked with its call; OD600 change, %; measured here: OD600 growth;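 optical density of the mix in the first replicate; 0 = DMSO median and -100 = no signal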
Ecoli rRNA inh RFP: also measured in Ecoli rRNA inh; calls as there; RFP signal change, %; measured here: RFP humanized mutant strains;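 first replicate; 0 = DMSO median and -100 = no signal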
* marks the source's active call; other numbers are inactive results; i = inactive; + = active, no number; & = joins results of further samples. This is a subset; count on the stated rates, not on these rows.

Each structure is followed by: Ecoli rRNA inh, Ecoli rRNA inh OD600, Ecoli rRNA inh RFP, MLL AF4-AF9 inh, FGF22 binding
1) COC(=O)c1ccc(CSc2ccccc2NC(=S)Nc2cccc(SC)c2)o1
    -7.8, -14.1, -0.4, 0.9, i
2) CN(C(=S)NC(=O)C1CCCC1)c1ccccc1
    6.9, 7.0, 2.3, -0.1, i
3) O=C(Nc1ccccc1F)N1C[C@H]2[C@@H](c3ccccc31)[C@@H](CO)N2C(=O)c1ccc(F)cc1
    3.8, 2.8, 0.4, -1.7, i
4) COc1cccc(S(=O)(=O)N(C)C[C@H]2OCc3ccccc3-c3ccccc3C(=O)N([C@H](C)CO)C[C@@H]2C)c1
    10.0, -9.4, 13.9, 7.8, i
5) C[C@@H]1CN([C@H](C)CO)C(=O)c2cccc(N(C)C)c2O[C@H]1CN(C)Cc1ccccc1
    1.4, -17.8, 3.2, -1.3, i
6) C[C@@H]1CN([C@H](C)CO)C(=O)Cc2cc(NS(=O)(=O)c3ccccc3)ccc2O[C@@H]1CN(C)Cc1ccc(C(=O)Nc2ccccc2N)cc1
    -1.3, -6.6, -1.4, -4.4, i
7) CCCCCCn1c(=O)n2n(c1=O)[C@@H]1CN(S(=O)(=O)c3ccc(C)cc3)C[C@]1(O)[C@@H](OC(=O)NCc1ccco1)C2
    -16.6, -23.7, 0.0, 2.3, i
8) C/C=C/c1ccc([C@@H]2[C@H](CO)N(C(C)=O)[C@H]2CNC(=O)c2ccccc2)cc1
    -1.9, -2.1, 0.5, 2.6, i
9) C[C@@H]1CN([C@@H](C)CO)C(=O)c2cc(C#Cc3ccccn3)cnc2O[C@H]1CN(C)C(=O)c1ccccn1
    1.8, 7.0, -2.6, -7.2, i
10) CCOC(=O)C1=C[C@@H](CC)N(S(=O)(=O)c2ccc(C)cc2)[C@H]1c1ccccc1
    8.2, 1.6, 0.2, -2.4, i
11) COc1ccc(C[C@H]2CCn3cc(nn3)COC[C@@H](CC(C)C)NC2=O)cc1
    3.5, 3.2, -2.6, -1.8, i
12) C[C@H]1CCCCO[C@@H](CN(C)Cc2ccc(C(F)(F)F)cc2)[C@@H](C)CN([C@@H](C)CO)C(=O)c2cc(NC(=O)Nc3ccc4c(c3)OCO4)ccc2O1
    -3.5, -5.3, 4.0, 1.7, i
13) CCCNC(=O)N1C[C@@H]2[C@H](c3ccccc31)[C@@H](CO)N2Cc1cccc(OC)c1
    0.9, 4.9, 1.4, -0.7, i
14) C[C@H](CO)N1C[C@H](C)[C@@H](CN(C)S(=O)(=O)c2ccc(Cl)cc2)OCCCC[C@H](C)Oc2ccc(NC(=O)Nc3ccccc3)cc2C1=O
    3.4, 8.2, 0.5, -2.5, i
15) CN1CCN(C(=O)C[C@@H]2C[C@H]3c4cc(NC(=O)NC5CCCCC5)ccc4O[C@H]3[C@@H](CO)O2)CC1
    -2.9, 4.2, 0.3, -1.5, i

Whole records as entered above:
Shown for CN1CCN(C(=O)C[C@@H]2C[C@H]3c4cc(NC(=O)NC5CCCCC5)ccc4O[C@H]3[C@@H](CO)O2)CC1 → Ecoli rRNA inh: -2.9; Ecoli rRNA inh OD600: 4.2; Ecoli rRNA inh RFP: 0.3; MLL AF4-AF9 inh: -1.5; FGF22 binding: i
Shown for O=C(Nc1ccccc1F)N1C[C@H]2[C@@H](c3ccccc31)[C@@H](CO)N2C(=O)c1ccc(F)cc1 → Ecoli rRNA inh: 3.8; Ecoli rRNA inh OD600: 2.8; Ecoli rRNA inh RFP: 0.4; MLL AF4-AF9 inh: -1.7; FGF22 binding: i

New compounds follow.
Each structure is followed by: Ecoli rRNA inh, Ecoli rRNA inh OD600, Ecoli rRNA inh RFP, MLL AF4-AF9 inh, FGF22 binding
16) C[C@@H]1CN([C@@H](C)CO)S(=O)(=O)c2ccc(C#CCN(C)C)cc2O[C@@H]1CN(C)C
    5.4, 10.5, -2.8, -1.1, i
17) O=C(Nc1cccc(Cl)c1)N[C@@H]1CC[C@H](CCNC(=O)C2CC2)O[C@@H]1CO
    -2.3, -6.1, 0.0, 0.7, i
18) C[C@H](CO)N1C[C@H](C)[C@@H](CN(C)Cc2ccc3c(c2)OCO3)Oc2ccc(NC(=O)Cc3cn(C)c4ccccc34)cc2C1=O
    -3.6, -6.7, 5.2, 9.9, i
19) C[C@@H]1CN([C@@H](C)CO)C(=O)c2cc(NC(=O)Cc3ccccc3)ccc2O[C@@H]1CN(C)Cc1ccc(C(=O)O)cc1
    6.4, 1.6, 0.1, -1.0, i
20) O=C(Nc1ccccc1)N1C[C@H]2[C@@H](c3ccccc31)[C@H](CO)N2CC1CCCC1
    -2.4, -22.3, 4.2, 1.4, i
21) O=C(CCN1CCCCC1)N[C@@H]1CC[C@H](CCNS(=O)(=O)c2ccc(F)cc2)O[C@H]1CO
    1.4, 3.7, 2.0, 2.8, +
22) COc1cc(C)c(C2NC(=O)c3ccccc3N2)cc1C (configuration not stated)
    9.2, 10.1, 1.3, -1.1, i
23) Cc1ccc(S(=O)(=O)N(C)C[C@@H]2OCCCC[C@H](C)Oc3ccc(NC(=O)Nc4cccc5ccccc45)cc3C(=O)N([C@H](C)CO)C[C@H]2C)cc1
    -7.4, -2.0, -5.4, 0.8, i
24) CCCC#Cc1cnc2c(c1)C(=O)N([C@H](C)CO)C[C@H](C)[C@H](CN(C)C(=O)Nc1ccc(OC)cc1)O2
    -0.8, 3.6, -1.0, 1.2, i
25) COC(=O)C[C@H]1C[C@@H]2c3cc(NC(=O)C4CCC4)ccc3O[C@@H]2[C@H](CO)O1
    3.1, 5.6, -0.5, 0.5, i
26) CC(C)NC(=O)Nc1ccc2c(c1)CC(=O)N([C@@H](C)CO)C[C@@H](C)[C@H](CN(C)S(=O)(=O)c1ccc(F)cc1)O2
    1.4, -0.7, 2.8, -1.4, i
27) CC1Cc2ccccc2N1C(=O)Cn1cc(C(F)(F)F)ccc1=O (configuration not stated)
    12.4, 5.4, 0.6, -5.1, i
28) O=C(CN1CCOCC1)NCC[C@H]1CC[C@@H](NC(=O)c2ccc3c(c2)OCO3)[C@@H](CO)O1
    2.2, 4.7, -1.4, 2.6, i
29) COCCNC(=O)C1CCCN(C(=O)/C=C/c2ccccc2)CC1 (configuration not stated)
    6.5, 21.0, 0.1, -1.6, i
30) COc1ccc(S(=O)(=O)Nc2ccc3c(c2)CC(=O)N([C@H](C)CO)C[C@@H](C)[C@H](CN(C)S(C)(=O)=O)O3)cc1
    3.5, -0.7, -2.3, -1.2, i

Each structure is followed by: Ecoli rRNA inh, Ecoli rRNA inh OD600, Ecoli rRNA inh RFP, MLL AF4-AF9 inh, FGF22 binding
31) COc1cccc(C(=O)Nc2ccc3c(c2)C(=O)N(C)C[C@@H](OC)[C@@H](C)CN(CC2CC2)[C@H](C)CO3)c1
    -1.9, -2.7, 2.2, -2.1, i
32) OC[C@@H]1[C@H](c2ccc(C#Cc3ccccc3F)cc2)[C@H]2CN(CC3CCOCC3)CCCCN12
    -5.0, 4.6, 6.2, 17.9, i
33) C[C@@H]1CCCCO[C@H](CN(C)Cc2ccc(C(=O)O)cc2)[C@@H](C)CN([C@H](C)CO)C(=O)c2cc(N(C)C)ccc2O1
    1.5&0.2, 18.2&11.8, 4.6&-0.3, 2.3&-11.7&-1.0, i
34) CCCNC(=O)N1C[C@H](O)COC[C@H]2O[C@@H](CC(=O)N3CCOCC3)CC[C@@H]21
    0.4, 9.2, -4.0, -1.3, i
35) C[C@H]1CN([C@@H](C)CO)C(=O)Cc2cc(NC(=O)Nc3ccc4c(c3)OCO4)ccc2O[C@@H]1CN(C)CC1CCCCC1
    2.3, -12.4, -1.0, 10.4, i
36) Cc1cccc(C)c1Cn1c(C)c(C(=O)NCc2ccc([N+](=O)[O-])cc2)sc1=O
    -9.5, -7.6, -10.4, 1.1, i
37) COc1cccc(-c2ccc([C@H]3[C@H]4CN(S(=O)(=O)c5cccs5)CCCCN4[C@H]3CO)cc2)c1
    0.3, 2.9, -1.2, -3.6, i
38) COC(=O)C1CCN(C2CN(Cc3cn(Cc4ccc(C(F)(F)F)cc4)nn3)S(=O)(=O)C2)CC1 (configuration not stated)
    11.2, 3.2, 1.9, -0.4, i
39) CSc1ccc(Oc2cccc3c2S(=O)(=O)N([C@H](C)c2ccccc2)C[C@@H](COCc2ccccc2)O3)cc1C
    0.0, 12.0, -2.0, 2.0, i
40) N#CC(c1ccc(O)cc1)N1CCN(C(C#N)c2ccc(O)cc2)CC1 (configuration not stated)
    15.0, 16.4, 0.5, -3.5, i
41) Brc1cccc(-c2nc3ccc(Br)cn3c2Cc2ccccc2)c1
    -35.8, -52.6, 13.9, 2.3, i
42) CCNC(=O)[C@H]1[C@H](CO)[C@H]2Cn3c(ccc(C4=CCCC4)c3=O)[C@H]2N1CC1CC1
    -1.0, 1.0, 1.0, -0.2, i
43) CC(=O)N1[C@@H]2Cn3c(ccc(/C=C/c4ccccc4)c3=O)[C@H]1[C@@H](C(=O)N(C)C)[C@@H]2CO
    -1.5, -2.6, -3.9, 0.0, i
44) Cc1ccc(S(=O)(=O)N[C@H]2CC[C@@H](CCn3cc(-c4cccc(F)c4)nn3)O[C@@H]2CO)cc1
    -13.7, -7.3, -0.4, 0.2, i
45) COc1cc(CNC(=O)c2cc(-c3cc(F)ccc3OCC3CCCO3)n[nH]2)cc(OC)c1 (configuration not stated)
    -0.7, 17.0, 16.1, 0.1, i

Values by screen from above:
Compounds 34 to 44 in FGF22 binding read i, i, i, i, i, i, i, i, i, i, i
Compounds 34 to 44 in Ecoli rRNA inh RFP read -4.0, -1.0, -10.4, -1.2, 1.9, -2.0, 0.5, 13.9, 1.0, -3.9, -0.4
Compounds 34 to 44 in Ecoli rRNA inh OD600 read 9.2, -12.4, -7.6, 2.9, 3.2, 12.0, 16.4, -52.6, 1.0, -2.6, -7.3

The list continues.
Each structure is followed by: Ecoli rRNA inh, Ecoli rRNA inh OD600, Ecoli rRNA inh RFP, MLL AF4-AF9 inh, FGF22 binding
46) COCCNC(=O)C[C@@H]1CC[C@H]2[C@H](COc3ccc(NC(=O)c4cnccn4)cc3C(=O)N2C)O1
    0.7, -1.1, -0.1, -3.0, i
47) COCC(=O)N1CCCCN2[C@H](CO)[C@@H](c3ccc(-c4ccc(F)cc4)cc3)[C@H]2C1
    5.8, 14.9, 0.3, 9.1, i
48) C[C@H](CO)N1C[C@H](C)[C@H](CN(C)S(=O)(=O)c2ccc(F)cc2)Oc2ccc(NC(=O)Nc3ccc4c(c3)OCO4)cc2C1=O
    -1.9, -5.8, -0.5, 6.4, i
49) COc1ccc(CNC(=O)C[C@H]2CC[C@H](NS(=O)(=O)c3cccc(OC)c3)[C@@H](CO)O2)cc1
    0.4, 4.8, 0.4, -2.0, i
50) OC[C@H]1[C@@H](c2ccccc2)C2(CN(CCC(F)(F)F)C2)N1Cc1ccncc1
    4.5, 5.2, -0.9, 0.9, i
51) COc1ccc(CNC(=O)N(C)C[C@@H]2OCc3ccccc3-c3c(n(C)c4ccccc34)C(=O)N([C@H](C)CO)C[C@@H]2C)cc1
    1.1, 1.1, -0.3, -6.0, i
52) O=C(C[C@@H]1CC[C@@H]2[C@H](COC[C@@H](O)CN2Cc2nccs2)O1)NCc1ccc(Cl)cc1
    3.6, 18.5, -1.5, -1.6, i
53) C[C@@H]1CCCCO[C@@H](CN(C)C(=O)Nc2ccc(F)cc2)[C@@H](C)CN([C@@H](C)CO)C(=O)c2cc(NC(=O)Nc3cccc4ccccc34)ccc2O1
    3.1, 8.3, -1.7, -3.1, i
54) CN(C)c1ccc(CNC(=O)C2(C)Cc3c(-c4cccc(C(F)(F)F)c4)ccnc3O2)cc1 (configuration not stated)
    12.6, -5.5, 6.8, 11.9, i
55) CCC(=O)N(C)C[C@H]1Oc2cc(-c3cccc(C#N)c3)ccc2S(=O)(=O)N([C@H](C)CO)C[C@H]1C
    -6.1, -3.1, -2.9, -7.9, i
56) CC1(C(=O)NS(=O)(=O)c2ccc(F)cc2F)CCN1C(=O)c1cccc(F)c1 (configuration not stated)
    4.7, 7.1, 0.3, -1.6, i
57) O=C(C[C@H]1C=C[C@H](NC(=O)c2ccncc2)[C@H](CO)O1)NCCc1ccncc1
    -1.3, -5.3, 0.6, -0.2, i
58) CCOC(=O)[C@]12CCC=C1N(CCC1=CCCCC1)C(=O)[C@H](CC(=O)N1CCN(C(=O)C3CC3)CC1)C2
    17.6, 21.0, 7.2, -0.5, i
59) C[C@@H]1CN([C@@H](C)CO)C(=O)c2cccc(NS(=O)(=O)c3ccc(Cl)cc3)c2O[C@H]1CN(C)C
    5.6, 5.4, 1.5, -2.2, i
